Hsc70 ATP site – Hsc70 inhibitors, probe displacement, primary screen, biochemical, fluorescence polarization (AID 568); Heat shock cognate 71 kDa protein (Homo sapiens); displacement, % at 20 µM; hits with a dose series show IC50 in µM; 83,000 tested, under 10 active; Hsc70 fluorescence polarization, probe displacement; higher % means a stronger effect; strong numbers were not always called active;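 active = displacement above 50% without optical interference and an IC50 on retest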;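 also: ATPase domain with a fluorescein-tagged ATP probe; 0% = vehicle and 100% = excess ADP; read after one hour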
WNV protease inh – inhibitors of WNV NS2B-NS3 protease, primary screen, biochemical, fluorogenic substrate. hit rate 0.18% among 65,000. fluorogenic substrate Ex360/Em465; hits give low values. z-score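 (tested at a level between 10 and 100 µM)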. Genome polyprotein (West Nile virus), P06935;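 active = z-score at -3 or under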;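 also: score is relative to mean and spread of the compound wells of a plate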
Target sequence (P06935 1371-1501 limits assumed): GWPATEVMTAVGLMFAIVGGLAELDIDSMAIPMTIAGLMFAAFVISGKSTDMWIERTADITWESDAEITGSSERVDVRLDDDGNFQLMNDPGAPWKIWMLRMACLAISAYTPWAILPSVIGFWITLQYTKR
Target sequence (P06935 1502-1679 limits assumed): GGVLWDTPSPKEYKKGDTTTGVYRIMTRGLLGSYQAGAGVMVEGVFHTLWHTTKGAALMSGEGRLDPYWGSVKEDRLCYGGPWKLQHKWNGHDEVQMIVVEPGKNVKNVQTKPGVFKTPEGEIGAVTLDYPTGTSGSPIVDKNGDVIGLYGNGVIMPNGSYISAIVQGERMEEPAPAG
MT1-MMP promoter – inhibitors of MT1-MMP promoter transcription, cell-based, luciferase reporter, luminescence (AID 618); MT1-MMP promoter luciferase reporter cells, luminescence; calls from a first round at 10 µM; hits with a dose series show EC50 in µM; hit rate 0.62% among 87,000;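 active = over half of the reporter light lost at 10 µM or EC50 under 50 µM; inactive = the rest and hits that failed the dose series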;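 also: actives suppress MT1-MMP promoter-driven transcription so potencies describe inhibitors; HT1080 fibrosarcoma cells; overnight exposure; toxic or luciferase-blocking compounds were not removed from the actives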
Numbers without * were called inactive; i = inactive; nt = no result given.

SMILES	Hsc70 ATP site	WNV protease inh	MT1-MMP promoter
CCOC(=O)CNC(=O)Cn1cnc2c(nnn2-c2ccc(C)cc2)c1=O	-1.1%	0.33	i
OCCNc1nc(C2CC2)nc2c1nnn2Cc1ccccc1Cl	3.1%	-0.99	i
Cc1cc(C(F)F)n2nc(C(=O)Nc3ccc(F)cc3F)nc2n1	-3.1%	0.14	i
CC(C)Nc1ncnc2c1nnn2Cc1ccccc1	2.3%	nt	i
COc1cc(OC)c(C(=O)NC2CCCCCC2)cc1OC	3.0%	0.9	i
Cc1nc(CC(=O)N2CCN(c3cccc(C)c3C)CC2)cs1	11%	3	i
COc1cccc(NC(=O)CSC2=C(C#N)C(c3ccco3)C3=C(CCCC3=O)N2)c1 (stereo unspecified)	-0.1%	0.51	i
COc1ccc2nc(C)cc(N3CC(C)OC(C)C3)c2c1 (stereo unspecified)	9.5%	0.43	i
CCN(CC)CC(=O)N(CC(=O)Nc1c(C)cc(C)cc1C)C1CCCCC1	-1.1%	-0.97	i
CCOC(=O)c1c(N)sc2c1CCS(=O)(=O)C2	-0.6%	-0.26	i
COc1ccc(-n2cnc3cc(N)ccc32)cc1	-1.6%	nt	i
Cc1cccc(C)c1NC(=O)CSCc1cccc(CSCC(=O)Nc2c(C)cccc2C)n1	0.6%	nt	i
CCN(Cc1ccccc1)Cc1cc(OC)cc(OC)c1	-4.0%	-0.6	i
COc1ccc(CNc2nc3nc(C)cc(C)n3n2)cc1OC	-2.0%	-0.32	i
CCOc1ccc(NC(=O)N(CCC(C)C)C(C)c2ccco2)cc1 (stereo unspecified)	-4.4%	0.04	i
COc1cc2c(cc1OC)C(c1cccc(OC)c1OC)CC(=O)N2 (stereo unspecified)	6.0%	-0.37	i
C=CCOC(=O)C1=C(C)NC(=O)NC1c1ccc(OC(=O)c2ccco2)c(OC)c1 (stereo unspecified)	0.5%	0.79	i
O=C(CSc1nnc(Cc2cccs2)n1C1CCCCC1)N1CCN(C(=O)c2ccco2)CC1	-2.1%	-0.42	i
CSc1nnc(-c2ccccc2)n1C	-1.7%	0.16	i
COc1cc2c(cc1OC)C(=S)NC(C)(C)C2	7.2%	nt	i
CCn1nc(C(=O)OCC(=O)c2cc(C)n(Cc3cccs3)c2C)c2ccccc2c1=O	4.7%	0.65	i
COc1ccccc1NC(=O)C1=C(C)Nc2nnnn2C1c1ccccn1 (stereo unspecified)	-0.4%	nt	i
C=CCNc1sc(C(=O)c2ccc(C)cc2)c(N)c1C#N	-0.5%	nt	i
COc1ccc(OC)c2sc(NC(=O)c3ccc(Br)s3)nc12	2.5%	-1.6	i
CCCOc1ccc(-c2nc(OC)c3ccccc3n2)cc1	1.6%	nt	i
O=C(Nc1cccnc1)c1ccco1	1.7%	nt	i
CC(=O)Nc1nc(-c2ccc(Cl)cc2)nc(C)c1C(C)=O	-3.8%	-0.2	i
CCCCC(CCCC)=N/N=C/c1c(O)n(CC)c2cc(C3=NNC(=O)CC3)ccc12	-15%	nt	i
COc1ccc2c(=O)c3c(=O)n(Cc4ccco4)c(-c4ccco4)nc3oc2c1	3.6%	nt	i
O=S(=O)(c1cccc2nsnc12)N1CCCC1	-3.0%	-0.24	i
Cc1ccnc(NS(=O)(=O)c2ccc(NS(=O)(=O)c3ccccc3)cc2)n1	6.4%	nt	i
NC(=O)c1ccc(-c2ccc(Br)cc2)o1	3.8%	-0.13	i
CCOC(=O)N1CCN(C(=O)c2ccc(C)c(S(=O)(=O)Nc3cccc(C)c3C)c2)CC1	2.2%	1.5	i
CCOc1ccc(C2Oc3nc(SC)nnc3-c3ccccc3N2C(C)=O)cc1OC (stereo unspecified)	2.4%	0.16	i
O=C(COC(=O)COc1ccc(Nc2ccccc2)cc1)NCc1ccco1	-1.5%	0.26	i
CCOC(=O)c1cnc2ccc(C)cc2c1OCc1cc(F)cc(F)c1	3.2%	nt	i
Cc1cc(NC(=O)COC(=O)C2CCN(S(=O)(=O)c3ccc(Cl)cc3)CC2)no1	-3.1%	-1.2	i
C=CCNC(=O)C1CCN(S(=O)(=O)c2ccccc2)CC1	-5.8%	-0.95	i
CCOC(=O)N1CCN(Cc2nc3c(c(=O)n(C)c(=O)n3C)n2Cc2cc(C)ccc2C)CC1	-5.6%	-1.8	i
CC1CCCCC1NC(=O)C1CCN(S(=O)(=O)N2CCOCC2)CC1 (stereo unspecified)	2.4%	-0.77	i
Nc1ccc2c(C(F)(F)F)cc(=O)oc2c1	14%	0.4	i
CCCC(C)C1C(C#N)=C(N)Oc2cc(C)oc(=O)c21 (stereo unspecified)	1.7%	0.87	i
C/C(=N\NC(=O)c1c[nH]c2ccccc12)c1ccco1	-3.5%	nt	i
C=CCN(CC=C)S(=O)(=O)c1ncn[nH]1	4.8%	-1.1	i
NC(=O)CSc1nnc(-c2cccs2)n1-c1ccccc1	0.8%	nt	i
Cc1c(/C(O)=C2/C(=O)C(=O)N(CCN3CCOCC3)C2c2cccnc2)cnn1-c1ccccc1 (stereo unspecified)	6.6%	0.0027	i
O=C(CSc1nc2c(c(=O)[nH]1)CCCC2)Nc1ccc(Cl)cc1F	-1.9%	-0.2	i
COCCCNS(=O)(=O)c1ccc2c(c1)CCN2C(C)=O	-8.7%	0.15	i
COc1ccc(CCNC(=O)C2CCCN2C(=O)NC2CCCCC2)cc1OC (stereo unspecified)	-0.5%	1.1	i
Cc1ccccc1OCC(=O)Nc1cccc2nsnc12	-7.6%	nt	i
COC(=O)CSc1nnc(CNC(=O)c2cccs2)n1-c1cc(OC)ccc1OC	-0.9%	0.11	i
CCOC(=O)c1c(C)n(C)c2ccc(OC)c(NC(=O)CN3CCN(Cc4ccccc4)CC3)c12	-4.1%	0.03	i
COc1ccc(C2=Nn3c(nnc3-c3ccncc3)SC2)cc1	-1.2%	nt	i
COc1ccc(C(=O)COC(=O)c2ccc(OC)c(OC)c2)cc1OC	-1.8%	-0.5	i
O=C(O)CCN=C1CCCc2ccccc2N1	-3.0%	0.22	i
CCc1nc(SCC(=O)N2CCc3ccccc32)c2oc3ccccc3c2n1	-2.9%	0.38	i
CC12CCC(C(=O)NCc3ccccc3)(OC1=O)C2(C)C (stereo unspecified)	4.8%	-0.67	i
O=C(c1cccc(F)c1)N1CCN(Cc2c[nH]c3ccccc23)CC1	-3.6%	1	i
Cc1nnc(SCc2ccccc2Cl)n1CC1CCCO1 (stereo unspecified)	3.1%	-0.62	i
Cc1ccc2c(c1C)NC(=O)C2(O)CC(=O)c1ccc2c(c1)OCO2 (stereo unspecified)	1.0%	-1.4	i

More results follow:
SMILES	Hsc70 ATP site	WNV protease inh	MT1-MMP promoter
CC1=C(C(=O)N2CCCCC2)C(c2cccs2)C2=C(CCCC2=O)N1 (stereo unspecified)	0.4%	0.68	i
CCCCOC(=O)c1cc(C)nc2ccc(Br)cc12	-2.4%	nt	i
O=C(C1CCN(S(=O)(=O)N2CCC3(CC2)OCCO3)CC1)N1CCN(Cc2ccccc2)CC1	-3.9%	-1.1	i
CCCn1nnnc1NCc1ccc(N2CCCC2)cc1	-0.7%	nt	i
CN(CC(=O)Nc1nc2ccccc2s1)S(=O)(=O)c1ccc(Br)cc1	-0.3%	nt	i
CCOC(=O)C1CCN(C(c2ccc(OC)c(OC)c2)c2sc3nc(C)nn3c2O)CC1 (stereo unspecified)	-2.3%	0.71	i
CCCCC(=O)Nc1ccc(C(=O)N2CCN(c3ccccc3OC)CC2)cc1	-1.2%	2.5	i
Cc1onc(-c2ccccc2)c1C(=O)Nc1ccon1	-10%	nt	i
Cc1nc2cc(-c3ccsc3-n3c(C)ccc3C)[nH]n2c(=O)c1Cl	3.6%	nt	i
CCOc1cc(C#N)c(NC(=O)c2cccnc2Cl)cc1OCC	-1.9%	nt	i
Cc1ccc(-c2nn3c(C)nnc3s2)cc1NC(=O)CSc1ccc(Cl)cc1	-3.9%	-0.28	i
CCCCNC(=O)C1CCCN(S(=O)(=O)c2ccc(S(=O)(=O)NCC(C)C)cc2)C1 (stereo unspecified)	1.6%	nt	i
O=C(Cn1ncc2c(=O)oc3ccccc3c21)NC1CC1	-3.0%	-0.42	i
CCOC(=O)Cc1csc(NC(=O)CSc2nc(C)cc(=O)[nH]2)n1	-3.6%	0.44	i
CCOc1ccccc1NC(=O)Cc1ccccc1OC	0.1%	0.39	i
O=C(N/N=C/c1ccc([N+](=O)[O-])s1)c1ccccc1Br	1.6%	nt	2.8µM*
Cc1ccc(S(=O)(=O)N2CC3(C)CN(S(=O)(=O)c4ccc(C)cc4)CC(C)(C2)C3O)cc1 (stereo unspecified)	-1.2%	0.73	i
CC1CCCC(C)N1C(=O)CSc1nnc(-c2cccs2)o1 (stereo unspecified)	1.1%	0.63	i
CCOC(=O)COc1nc(Nc2ccccc2C)nc(N(C)C)n1	-0.6%	-1.1	i
Cc1noc(/C=C/N(C)C)c1S(=O)(=O)N(C)CC(=O)NC1CCCCC1	2.0%	-1.1	i

Retrieved by structure from above:
SMILES	Hsc70 ATP site	WNV protease inh	MT1-MMP promoter
Cc1noc(/C=C/N(C)C)c1S(=O)(=O)N(C)CC(=O)NC1CCCCC1	2.0%	-1.1	i
CCOC(=O)Cc1csc(NC(=O)CSc2nc(C)cc(=O)[nH]2)n1	-3.6%	0.44	i

The list continues.
SMILES	Hsc70 ATP site	WNV protease inh	MT1-MMP promoter
c1ccc2oc(-c3ccc(Nc4nc(N5CCCCC5)nc(N5CCOCC5)n4)cc3)nc2c1	-1.2%	nt	i
CCOc1ccc(C(=O)Nc2nnn(CC)n2)cc1	0.0%	0.55	i
O=c1cc(O)c2c(=O)n3c4c(cccc4c2o1)CCC3	5.7%	-0.88	i
CC1=CC(C)(C)Nc2ccc(OC(=O)CN3C(=O)C4CCCCC4C3=O)cc21 (stereo unspecified)	-3.4%	nt	i
O=C(NCCN1CCCCC1)Nc1ccccc1	6.5%	nt	i
COc1ccc(NS(=O)(=O)c2ccc(NS(=O)(=O)c3ccc(C)cc3)cc2)nn1	-6.4%	-0.31	i
CC1=C(C(=O)c2ccccc2)C(c2cn(-c3ccccc3)nc2-c2ccc(Cl)cc2)NC(=S)N1 (stereo unspecified)	-7.1%	nt	i
COc1ccc(C(=O)Nc2cc3c(cc2C#N)OCO3)cc1S(=O)(=O)NCc1ccco1	-4.0%	1	i
O=C(NCc1cccs1)c1cc2ccccc2o1	1.5%	-0.24	i
O=C(c1ccc(CN2CCc3ccccc3C2)cc1)N1CCCCC1	1.8%	0.04	i
Cc1cc(Nc2ccccc2)n(C(=O)c2ccc(Cl)cc2)n1	7.6%	nt	i
COc1cccc(NC(=O)CNS(=O)(=O)c2ccc3nc(C)sc3c2)c1	11%	0.28	i
CCCn1c(CCc2ccccc2)nnc1SCC(=O)N1CCCC1	-4.7%	1.1	i
CCOC(=O)c1ccc(-c2nnc(-c3ccc(Cl)cc3Cl)o2)cc1	-4.2%	0.09	i
CCCS(=O)(=O)NCCc1cc2ccc(C)cc2[nH]c1=O	1.8%	0.95	i
CSCC[C@H](NC(=O)C1CCN(S(=O)(=O)c2ccc(C)cc2)CC1)C(=O)NCc1ccco1	-12%	-0.3	i
CCCCSc1nsc(NC(C)=O)n1	-1.8%	0.86	i
CCOC(=O)CCCn1c(C)nc(=O)c(-c2ccccc2)c1C	-3.7%	-1.7	i
CC(=O)c1c(C(C)=O)c(C)n(NC(=O)c2ccc(Cl)cc2)c1C	2.6%	nt	i
Cc1ccccc1NC(=O)CSc1[nH]c(=O)cc(C)c1C#N	1.0%	1.1	i

The closing 5 compounds of the section before are carried over, then new ones follow:
SMILES	Hsc70 ATP site	WNV protease inh	MT1-MMP promoter
CSCC[C@H](NC(=O)C1CCN(S(=O)(=O)c2ccc(C)cc2)CC1)C(=O)NCc1ccco1	-12%	-0.3	i
CCCCSc1nsc(NC(C)=O)n1	-1.8%	0.86	i
CCOC(=O)CCCn1c(C)nc(=O)c(-c2ccccc2)c1C	-3.7%	-1.7	i
CC(=O)c1c(C(C)=O)c(C)n(NC(=O)c2ccc(Cl)cc2)c1C	2.6%	nt	i
Cc1ccccc1NC(=O)CSc1[nH]c(=O)cc(C)c1C#N	1.0%	1.1	i
Cc1sc2ncnc(OCC(=O)NCc3cccs3)c2c1C	5.1%	-0.04	i
CN(C)CCC=C1c2ccccc2CCc2ccccc21	-5.7%	0.42	i
O=C(O)CCC(=O)Nc1nnc(C(F)(F)F)s1	-2.1%	-0.24	i
N=c1sccn1CC(=O)Nc1ccccc1Oc1ccccc1	4.5%	nt	i
Cc1ccc(C)c(-n2c(Cc3cc(=O)[nH]c(=O)[nH]3)nnc2SCC(=O)NCC2CCCO2)c1 (stereo unspecified)	-0.9%	0.69	i
Cc1c(C(=O)N2CC(C)OC(C)C2)sc2nc(-c3ccc(F)cc3)cn12 (stereo unspecified)	2.8%	-0.86	i
CC1CCN(C(=O)COC(=O)[C@H](C)NS(=O)(=O)/C=C/c2ccccc2)CC1	0.7%	nt	i
COc1ccc(Br)cc1CNC(=O)C1CCCN(S(C)(=O)=O)C1 (stereo unspecified)	-2.0%	-1.4	i
O=C1CC(N2CCOCC2)C(=O)N1Cc1ccc(N2CCCC2=O)cc1 (stereo unspecified)	5.7%	-3.2*	i

Three entries out of the list, arranged by count of non-hydrogen atoms, descending:
SMILES	Hsc70 ATP site	WNV protease inh	MT1-MMP promoter
Cc1ccc(C)c(-n2c(Cc3cc(=O)[nH]c(=O)[nH]3)nnc2SCC(=O)NCC2CCCO2)c1 (stereo unspecified)	-0.9%	0.69	i
O=C1CC(N2CCOCC2)C(=O)N1Cc1ccc(N2CCCC2=O)cc1 (stereo unspecified)	5.7%	-3.2*	i
CN(C)CCC=C1c2ccccc2CCc2ccccc21	-5.7%	0.42	i

Screens: PubChem, several laboratories

An excerpt; the hit share may differ from the screen's.
